Screens deposited in PubChem BioAssay by National Center for Advancing Translational Sciences (NCATS).
HP1b chromo inh: HTS for Inhibitors of HP1-beta Chromodomain Interactions with Methylated Histone Tails. actives 0.56% (n = 390,000). AlphaScreen HP1-beta / biotin-H3K9me3 peptide binding. AID 540317, 2011. Potency, µM (top dose mostly 114 µM), for the others: top-dose activity change, negative = inhibition, most hits filed as inhibitors; also: potency is read from the fitted curve at half-maximal effect; nearly all actives have a fitted effect of over 70% in size; inactives centre near 23
Target sequence (P83916 whole entry, looked up): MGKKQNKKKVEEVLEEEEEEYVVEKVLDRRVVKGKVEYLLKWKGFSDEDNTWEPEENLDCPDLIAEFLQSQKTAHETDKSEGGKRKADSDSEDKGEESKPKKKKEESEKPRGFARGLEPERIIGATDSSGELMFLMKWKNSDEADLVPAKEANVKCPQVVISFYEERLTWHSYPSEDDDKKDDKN
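Compound inhibition of the preformed complex between 50 nM HP1-beta and 50 nM biotinylated H3K9me3 peptide was read by AlphaScreen. Buffer was PBS pH 7.4 with 0.01% Tween-20. Incubations ran 30 min at room temperature, with 10 ug/mL donor/acceptor beads.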
ERG-DNA inh: qHTS for Small Molecule Inhibitors of the ERG Ets/DNA interaction. Transcriptional regulator ERG (Homo sapiens), P11308. fluorescence polarization, His-ERG Ets domain / labelled DNA. Potency, µM (top dose mostly 76.9 µM), for inactives: at the highest dose FP activity, negative = inhibition, most hits filed as inhibitors. actives 0.028% (n = 370,000); active = well fitted inhibition curve with a large enough effect in the polarisation, with a control signal flat; inconclusive = small, poorly fitted or top-dose-only effect, or effect the other way, or a change in a side signal; inactive = no such curve, though single readings can be large or run the other way; the % refers to the polarisation;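 also: polarization taken with two DNA probes labelled with fluorescein and Texas red; potency is read from the fitted curve at half-maximal effect; % of control where 0% means no effect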
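His-tagged ERG Ets domain (1 uM in the protein solution; 300mM KCl, 50mM Tris-HCl, 1mM EDTA, 1mM DTT, pH 7.5) received compound, then a probe mix of 5 nM fluorescein-DNA and 100nM Texas-615-DNA. Fluorescence polarization was read for both dyes.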
PI4K2A block: qHTS for small molecular inhibitors of PI4K2A; actives 0.13% (n = 420,000); purified PI4K2A, ADP-Glo luminescence, 1 h; stronger effect = lower value; activity change, negative = inhibition, % at 76.9 µM; Phosphatidylinositol 4-kinase type 2-alpha (Homo sapiens), Q9BTU6; in the data active = activity change below about -50%; inconclusive = mostly about -30% to -49%;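 also: -100% = wells without enzyme as full effect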
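In this quantitative HTS, ADP production by PI4K2A was quantified luminescently after 1 h at ambient temperature; 100 microM adenosine served as plate-quality control.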
JMJD2A Tudor inh: qHTS Assay for Inhibitors of JMJD2A-Tudor Domain. AlphaScreen JMJD2A-Tudor / H3K4me3 peptide binding. actives 4.4% (n = 390,000). AID 504339, 2011. Potency, µM (highest dose often 114 µM), for inactives: top-dose activity change, negative = inhibition, actives largely listed as inhibitors. Lysine-specific demethylase 4A (Homo sapiens), O75164; also: potency is read from the fitted curve at half-maximal effect; % is scaled to controls: 0 for no effect and ±100 for the full control effect; nearly all actives have a fitted effect of over 50% in size
G9a block: qHTS Assay for Inhibitors of Histone Lysine Methyltransferase G9a; Histone-lysine N-methyltransferase EHMT2 (Homo sapiens), Q96KQ7; G9a H3K9 monomethylation, AlphaScreen, 2 h; Potency, µM (series often up to 102 µM), for the others: at the highest dose activity, negative = inhibition, most hits filed as inhibitors; actives 8.8% (n = 350,000); AID 504332, 2011; also: potency is read from the fitted curve at half-maximal effect; % is scaled to controls: 0 for no effect and ±100 for the full control effect; nearly all actives have a fitted effect of over 75% in size
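Enzyme 20 nM + cpd, 15 min RT; add b-H3K9 pep 500 nM / SAM 20 uM; 2 h RT; anti-H3K9me1 Ab 0.5 ug/mL + SA donor / anti-rabbit acceptor beads 20 ug/mL each, 10 min; AlphaScreen read.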
Pin1 inhibitor: qHTS Assay to Find Inhibitors of Pin1; actives 0.009% (n = 390,000); Pin1 FP peptide displacement, HiFluor488, 10 min; Potency, µM (doses to about 115 µM), inactives show at the highest dose activity, negative = inhibition, usual class: inhibitors; Peptidyl-prolyl cis-trans isomerase NIMA-interacting 1 (Homo sapiens), Q13526; active = well fitted inhibition curve with a large enough effect in the polarisation, with a control signal flat, not every such curve was filed as active; inconclusive = small, poorly fitted or top-dose-only effect, or effect the other way, or a change in a side signal; inactive = no such curve, though single readings can be large or run the other way; the % refers to the polarisation; also: potency is read from the fitted curve at half-maximal effect; % is scaled to controls: 0 for no effect and ±100 for the full control effect
Target sequence (Q13526 whole entry, looked up): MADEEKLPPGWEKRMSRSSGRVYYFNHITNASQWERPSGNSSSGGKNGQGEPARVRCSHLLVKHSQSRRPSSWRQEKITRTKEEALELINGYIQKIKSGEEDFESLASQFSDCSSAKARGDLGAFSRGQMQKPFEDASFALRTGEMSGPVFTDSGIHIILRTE
GLS inh: qHTS for Inhibitors of Glutaminase (GLS) | Glutaminase kidney isoform, mitochondrial (Homo sapiens), O94925 | GLS enzymatic activity, qHTS titration | Potency, µM (titrated, usually from 45.5 µM), for the others: top-dose activity change, negative = inhibition, usual class: inhibitors | actives 0.21% (n = 410,000) | AID 624170, 2012; also: potency is read from the fitted curve at half-maximal effect; % is scaled to controls: 0 for no effect and ±100 for the full control effect
Target sequence (O94925 whole entry, looked up, canonical isoform): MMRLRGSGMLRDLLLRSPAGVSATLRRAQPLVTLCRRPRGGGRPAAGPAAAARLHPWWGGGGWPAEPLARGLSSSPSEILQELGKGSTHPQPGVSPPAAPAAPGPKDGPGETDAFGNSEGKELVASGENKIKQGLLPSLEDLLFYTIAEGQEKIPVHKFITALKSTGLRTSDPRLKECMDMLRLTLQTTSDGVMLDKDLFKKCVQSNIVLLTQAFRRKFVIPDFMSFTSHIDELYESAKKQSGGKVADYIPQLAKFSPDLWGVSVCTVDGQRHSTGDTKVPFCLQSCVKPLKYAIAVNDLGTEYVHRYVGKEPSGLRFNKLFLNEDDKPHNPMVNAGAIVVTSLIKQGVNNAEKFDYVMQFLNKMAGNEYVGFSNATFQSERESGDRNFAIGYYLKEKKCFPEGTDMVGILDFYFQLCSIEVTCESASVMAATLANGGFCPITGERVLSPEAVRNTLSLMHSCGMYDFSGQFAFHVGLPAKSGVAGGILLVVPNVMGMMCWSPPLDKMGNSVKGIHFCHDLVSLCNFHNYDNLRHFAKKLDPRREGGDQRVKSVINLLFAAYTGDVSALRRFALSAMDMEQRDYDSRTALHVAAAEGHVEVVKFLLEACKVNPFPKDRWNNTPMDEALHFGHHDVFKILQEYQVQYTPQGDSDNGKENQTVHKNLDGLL
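Coupled fluorescence readout: glutamate oxidase/HRP/Amplex Red detect glutamate formed by hKGA from L-glutamine (1 mM solution added). Buffer 45 mM KH2PO4 pH 8.2, 0.02% Tween-20; reads at t0 and 30 min RT.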
Tb PGK inh: qHTS Assay to Find Inhibitors of Phosphoglycerate Kinase; Potency, µM (doses to about 57.5 µM), inactives show top-dose activity change, negative = inhibition, most hits filed as inhibitors; actives 0.043% (n = 380,000); PGK/GAPDH coupled, Kinase-Glo luminescence, 60 min; AID 602233, 2012; also: potency is read from the fitted curve at half-maximal effect; % is scaled to controls: 0 for no effect and ±100 for the full control effect; nearly all actives have a fitted effect of over 60% in size
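Luminescent ATP detection (Kinase-Glo Plus) follows a 60-minute room-temperature incubation, with wells lacking PGK as controls. Buffer: 100 mM TEA (pH 7.6), 5 mM MgCl2, 0.01% Tween-20. Coupling enzyme GAPDH (100 nM final) supplies unstable 1,3-BPG in-well.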
An asterisk follows results filed as active; i = inactive; ? = inconclusive; . = no result given; [ ] = dose if it differs, or a comment. Unless noted, calls follow the shape of the dose curve; as a rule, active = well fitted curve in the direction sought with a large enough effect; inconclusive = small, poorly fitted or top-dose-only effect, or another doubt; inactive = no such curve, though single readings can be large; an effect the other way counts as inactive or inconclusive.

SMILES	HP1b chromo inh	ERG-DNA inh	PI4K2A block	JMJD2A Tudor inh	G9a block	Pin1 inhibitor	GLS inh	Tb PGK inh
Cc1cc(CN2CCN(c3ccc(F)cc3)CC2)cs1	37%	-10%	-2	?	?	-12%	11%	12%
COc1ccc(C(=O)n2nc(-c3ccco3)nc2NCc2cccs2)cc1OC	-23%	0%	14	-26%	?	3%	0%	-10%
Cc1ccc2c(CN3CCN(Cc4ccc5c(c4)OCO5)CC3)cc(=O)oc2c1C	-10%	.	-3	-24%	?	?	-5%	3%
O=[N+]([O-])c1ccccc1NCc1ccccc1Cl	?	6%	2	?	?	-4%	-2%	i
CCN(CC)S(=O)(=O)c1ccc2c(c1)c(=O)c(C(=O)NCCCN(C)c1ccccc1)cn2C	?	9%	0	?	10µM*	?	19%	-7%
CC1(CC(=O)N/N=C/c2ccc(-c3ccc(C(=O)O)cc3)o2)OCCO1	25%	.	-4	-36%	8.9µM*	-7%	3%	5%
Cc1c(C(=O)Nc2c(F)cccc2F)sc2ncn(CC(=O)N3CCCCC3)c(=O)c12	36%	-7%	-4	-11%	26%	5%	3%	6%
O=C(CSc1nccn1Cc1ccc(F)cc1)Nc1ccc2c(c1)OCCO2	-1%[57 µM]	3%	-2	-35%	-50%[59 µM]	-2%	5%	10%
COc1cc(NC(=O)Nc2ccccc2OC)c(OC)cc1NC(=O)CN1CCCCC1	?	7%	-1	?	?	3%	3%	0%
O=C(CCC1CCCC1)N1CCN(C2CCCC2)CC1	?	13%	-4	?	?	-6%	4%	-9%
S=C(NN=C1CCN(Cc2ccccc2)CC1)NC1CCCCC1	?	-4%	4	?	50µM*	-13%	-8%	-11%
COc1ccc2cc(C(=O)C3CCCN(Cc4cnc(N5CCOCC5)s4)C3)ccc2c1 (centres undefined)	-5%	-1%	1	?	40µM*	-3%	-11%	-3%
FC(F)(F)c1cccc(-n2cc(-c3ccccc3)[nH]c2=S)c1	5%	-7%	1	?	?	1%	-11%	i
CN(C)C(=O)NC(NC(=S)Nc1ccccc1)C(Cl)(Cl)Cl (centres undefined)	?	11%	-4	-26%	?	-3%	-15%	-10%
CCOC(=O)c1c(Nc2ccc(OCC)cc2)nnc(-c2ccccc2)c1-c1ccccc1	?	3%	2	?	?	1%	-13%	6%
NNC(=O)CS(=O)(=O)CS(=O)(=O)CC(=O)NN	17%	2%	-2	?	3.2µM*	-1%	?	-7%
CCn1c(=O)c(-c2cc(=O)[nH][nH]2)c(O)c2ccccc21	30%	2%	-2	-18%	14%	-26%	0%	-9%
CCOc1ccc(-n2ccnc2SCC(=O)N2CCCc3ccccc32)cc1	-36%	-11%	0	?	50µM*	-3%	6%	-13%
COc1ccc(NC(C)=O)cc1NC(=O)CSc1nnc(-c2ccccn2)n1C	33%	8%	-2	?	9%[12.7 µM]	-2%	0%	0%
O=S(=O)(Nc1ccc2c(c1)OCCO2)c1ccc(F)cc1	14%	-3%	1	-12%	17%[12.7 µM]	-1%	4%	-5%

Four consecutive records out of the list so far, quoted:
SMILES	HP1b chromo inh	ERG-DNA inh	PI4K2A block	JMJD2A Tudor inh	G9a block	Pin1 inhibitor	GLS inh	Tb PGK inh
Cc1cc(CN2CCN(c3ccc(F)cc3)CC2)cs1	37%	-10%	-2	?	?	-12%	11%	12%
COc1ccc(C(=O)n2nc(-c3ccco3)nc2NCc2cccs2)cc1OC	-23%	0%	14	-26%	?	3%	0%	-10%
Cc1ccc2c(CN3CCN(Cc4ccc5c(c4)OCO5)CC3)cc(=O)oc2c1C	-10%	.	-3	-24%	?	?	-5%	3%
O=[N+]([O-])c1ccccc1NCc1ccccc1Cl	?	6%	2	?	?	-4%	-2%	i

Additional structures:
SMILES	HP1b chromo inh	ERG-DNA inh	PI4K2A block	JMJD2A Tudor inh	G9a block	Pin1 inhibitor	GLS inh	Tb PGK inh
Cc1cccc(NC(=S)N(C)Cc2cn(C)c3ccccc23)c1	-17%	-5%	3	?	4%[59 µM]	2%	3%	?
CN(C)C(CNC(=O)c1ccc2c(=O)n(-c3ccccc3F)c(=S)[nH]c2c1)Cc1ccccc1 (centres undefined)	16%	-2%	-6	?	?	6%	2%	i
CCOCCCNC(=O)C(NC(=O)c1ccc(=O)[nH]c1)c1ccccc1 (centres undefined)	6%	-16%	0	-10%	-11%	0%	2%	3%
Cn1c(SCC(=O)NC(=O)NCc2ccco2)nnc1C(F)(F)F	18%	-7%	3	-10%	-6%	-9%	7%	4%
CCOc1ccc(NC(=O)c2c(Nc3ccccc3C)sc(C(=O)c3ccc(Cl)cc3)c2N)cc1	5%	3%	1	?	8.9µM*	6%	-4%	-8%
N#CCn1cnc2sc(-c3ccccc3)cc2c1=O	16%	-7%	6	-14%[57.1 µM]	-47%	40%[activator]	2%	0%
C=Cc1ccc(CSc2nnc(C)n3c2cc2occc23)cc1	?	-2%	1	?	10µM*	11%	1%	8%
CCC1Sc2ccc(S(=O)(=O)CCC(=O)Nc3c(Cl)cc(OC)cc3OC)cc2NC1=O (centres undefined)	20%	4%	-11	-17%	-18%[59 µM]	0%	-15%	-19%
Cn1c(=O)[nH]c(=O)c2c1nc(NC1CCCCC1)n2CCO	34%[activator]	5%	-1	-18%	14%[59 µM]	2%	11%	-7%
CC1(C)C(=O)Nc2ccccc2N1C(=O)CSc1ncccn1	23%	-6%	-2	-19%	-10%	-6%	4%	1%
Cc1ccc(-c2nnc3ccc(SCC(=O)NCc4ccco4)nn23)cc1	10%	-7%	-2	-20%	14%[59 µM]	8%	2%	-10%
CCOc1cccc(OCCNC2CCCC2)c1	?	7%	0	-100%	14µM*	-1%	5%	-5%
O=C(/C=C/c1ccco1)N1CCCC(c2ccccc2)C1 (centres undefined)	?	4%	-20	?	40µM*	0%	-8%	.
CC(=O)Nc1cccc(-n2cc3c(c2-c2ccccc2Cl)c(=O)n(C)c(=O)n3C)c1	-8%	3%	2	?	-46%[59 µM]	5%	-2%	-5%
Clc1ccc(CNc2ccc(CNc3ncn[nH]3)cc2)c(Cl)c1	-18%	5%	-2	?	-1%[12.7 µM]	5%	20%	3%
CC(C)n1cnc2c(Nc3cccc(F)c3)nc(NCCO)nc21	26%	-9%	-1	-24%	?	1%	-2%	-3%
Cc1cccc(C(=O)Nc2nnc(S(=O)(=O)N(C)c3ccccc3C)s2)c1	-24%	-3%	-6	?	3.2µM*	2%	9%	5%
CN(C)c1oc(-c2ccc(COc3ccccc3)o2)nc1C#N	?	3%	-2	?	14µM*	10%	1%	8%
COc1ccc(N2C(=O)CC(Sc3ccccc3C(=O)O)C2=O)c([N+](=O)[O-])c1 (centres undefined)	20%	-9%	-4	?	0.32µM*	-3%	7%	-4%
C=CCN1C(=O)CN=C1Nc1ccc(F)cc1	26%	7%[15.4 µM]	4	-16%	.	-10%	-2%	-8%
CCN(CCCNC(=O)CN(C)S(=O)(=O)c1cccc2nsnc12)c1cccc(C)c1	?	0%	3	-28%	18µM*	1%	40%[activator]	2%
Cn1c(=O)n(C)c2cc(NC(=O)c3ccc(F)cc3)c(Br)cc21	37%	-3%	-1	1%	.	-3%	6%	4%
O=C(CSc1ccc2nnc(-c3ccccn3)n2n1)Nc1ccccc1F	51%[activator]	-3%	5	?	5%	-2%	-9%	5%
O=C(CSc1nnc(-c2ccccn2)o1)Nc1cccc(Cl)c1	53%[activator]	9%	-4	-16%	17%	30%	-5%	-8%
c1ccc2c(N3CCOCC3)nc(-c3ccncc3)nc2c1	15%	-5%	-2	-13%	24%[59 µM]	10%	8%	-7%
COc1ccc(OCC(=O)Nc2cccc(OC)c2)cc1	20%	-1%	1	-1%	-6%[12.7 µM]	0%	11%	-2%
O=C1Nc2ccccc2Oc2cc([N+](=O)[O-])ccc21	9%	5%	-4	?	?	28%	1%	-7%
Fc1ccc(N/N=C(/c2ccccc2)c2ccccn2)cc1	8%	1%	2	-30%	14µM*	-7%	?	3%
COc1ccc(-c2nc(CSCC(=O)N3CCN(c4ccccc4)CC3)c(C)o2)cc1	-10%	-16%	0	?	?	?	12%	15%
COc1ccc(C2c3ccc4ccccc4c3Oc3ncn(Cc4ccco4)c(=N)c32)cc1OC (centres undefined)	?	-20%	11	?	?	55%[activator]	5%	-3%
CC1CCN(c2nc(-c3ccncc3)nc3ccccc23)CC1	35%	0%	4	-28%	0%	?	2%	2%
Cn1c(Cc2csc(N)n2)nnc1SC/C=C/c1ccccc1	28%	14%	7	?	13%[12.7 µM]	-2%	25%	i
Cc1nnc(SCc2ccccc2)nc1/C=C/NOCc1ccc(Cl)cc1Cl	-16%	-5%	4	?	?	1%	-13%	-8%
CCCOc1c(OC)cccc1C1CC(=O)Nc2cc3c(cc21)OCCO3 (centres undefined)	0%	-6%	-4	-30%[11.4 µM]	-4%[59 µM]	2%	0%	-7%
C/C(=N/N1CCN(Cc2cccc3ccccc23)CC1)c1ccco1	?	15%[15.4 µM]	3	?	.	-9%	-10%	7%
COc1ccc(OCc2cc(C(=O)N(C)Cc3nccn3C)no2)c2ccccc12	?	-3%	-2	?	35µM*	-3%	-13%	-1%
O=C(COC(=O)/C=C/c1ccccc1)Nc1nnc(-c2ccccc2)o1	42%[activator]	-3%	-6	-31%	0%	-7%	0%	-3%

The list is partial; count on the stated rates, not on these rows.
